From PubChem BioAssay
AF4-AF9 inh – blocks AF4 peptide binding to human AF9. P42568. AlphaScreen, biotin-AF4 peptide binding to FLAG-AF9. inhibition, % at 10 µM. 350,000 tested, 0.47% active;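 active = every replicate reaching a set inhibition limit, whatever the replicate mean, cut at about 25% in these data; inconclusive = mean inhibition reaches that limit but some replicates miss it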;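 note: 0% = plate neutral control median and 100% = total signal loss; the record names both 10 and 1 µM as test concentration; the first replicate is given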
Target sequence (P42568 whole entry, looked up): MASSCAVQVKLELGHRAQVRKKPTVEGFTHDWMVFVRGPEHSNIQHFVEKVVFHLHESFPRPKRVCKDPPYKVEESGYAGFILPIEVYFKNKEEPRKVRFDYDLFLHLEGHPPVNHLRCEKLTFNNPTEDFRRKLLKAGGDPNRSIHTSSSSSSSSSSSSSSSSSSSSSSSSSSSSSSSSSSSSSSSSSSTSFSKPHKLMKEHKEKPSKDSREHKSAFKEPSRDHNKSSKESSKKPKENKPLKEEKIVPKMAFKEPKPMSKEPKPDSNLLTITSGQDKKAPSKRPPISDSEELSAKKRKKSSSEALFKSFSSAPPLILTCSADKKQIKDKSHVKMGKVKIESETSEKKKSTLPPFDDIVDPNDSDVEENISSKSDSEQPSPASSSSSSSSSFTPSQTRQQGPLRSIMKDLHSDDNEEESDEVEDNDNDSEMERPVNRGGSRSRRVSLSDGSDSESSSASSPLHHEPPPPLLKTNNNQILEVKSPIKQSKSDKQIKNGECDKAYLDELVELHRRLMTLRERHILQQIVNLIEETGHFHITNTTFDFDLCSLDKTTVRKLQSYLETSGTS
Vif TR-FRET – inhibitors of Vif binding to APOBEC3G peptide, primary screen, biochemical, TR-FRET, GST-Vif 1-94, biotin-A3G peptide, dose response retest (AID 1117319) | inhibition, %; hits with a dose series show IC50 in µM | TR-FRET GST-Vif / biotin-A3G peptide binding; higher % means a stronger effect; test concentration not given here; strong numbers were not always called active | 260,000 tested, 0.57% active;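 active = above the screen mean plus three standard deviations and confirmed in dose response; inconclusive = results disagree or hit not tested in dose response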;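 note: Vif residues 1-94 fused to GST binding biotinylated APOBEC3G peptide 110-148; 0% = full assay without inhibitor and 100% = GST in place of GST-Vif; retest series ran down from 100 µM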
Active calls of the source: *; ? = inconclusive; & = joins results of further samples. A portion of the library; count on the stated rates, not on these rows.

Compound | AF4-AF9 inh | Vif TR-FRET
O=S(=O)(Nc1cc(Sc2ncn[nH]2)c(O)c2ccccc12)c1ccccc1 | 0.5 | 17.9%
N#Cc1nccc2ccc(OCc3ccc(Br)cc3)cc12 | -2.2 | -4.8%
CCCCCCN1C[C@H](O)[C@@H](n2cc(C3CC3)nn2)C[C@@H]1c1ccc(C)cc1 | 1.1 | 1.2%
O=C(O)c1ccccc1C(=O)Nc1ccc(Nc2ccccc2)cc1 | 14.8 | -0.2%
CCOc1ccccc1N1CCN(CC(=O)Nc2ccccc2C(=O)NC2CC2)CC1 | 2.2 | -5.9%
COc1ccc(CC2C(=O)NC(C)C(=O)N(C)C3Cc4ccc(cc4)Oc4cc(ccc4O)CC(C(=O)NC(C)C(=O)NC(C)C(=O)N2C)N(C)C3=O)cc1 (centres undefined) | -1.3 | -4.7%
COC(=O)C(=O)C1CCc2c(Cl)cc(OC)c(OC)c2C1=O (centres undefined) | 0.5 | 6.8%
COc1ccccc1Cn1c(=O)oc2ccccc21 | -2.3 | 4.6%
CN(C)C(=O)c1ccc(NC(=O)COc2cccc3c2OC(C)(C)C3)cc1 | 12.7 | 2.6%
CC(=O)OC1CCC2(C)C(CCC3C4CC=C(C(C)=O)C4(C)OC(=O)CC32)C1 (centres undefined) | 1.1 | 12.6%
Cc1ccc([C@H]2C[C@H](O)[C@@H](n3cc(-c4ccc(F)cc4)nn3)CN2C(=O)C2CCCCC2)cc1 | -0.5 | 0.5%
O=C(OCc1cn([C@@H]2C[C@H](c3ccccc3)N(Cc3cccs3)C[C@H]2O)nn1)c1ccccc1 | 0.9 | 1.1%
COc1cc(NCCCn2cnc(C(=O)Nc3ccc(C)c(C)c3)n2)cc(OC)c1OC | 5.9 | -1.6%
C=CCCC(=O)N1C[C@H]2CON(C)[C@H]2C[C@H]1c1cccc(Oc2ccccc2)c1 | -0.6 | 2.3%
COc1ccc2c(c1)CC=C1C2CCC2(C)C(=O)C(=NO)CC12 (centres undefined) | 0.7 | -4.7%
Cc1cc(C)c(NC(=O)COC(=O)C2=COCCO2)c(C)c1 | -9.6 | 4.7%
Cc1ccc([C@H]2C[C@@H](O)[C@H](n3cc(COC(=O)c4ccccc4)nn3)CN2C(=O)c2cccs2)cc1 | 1.2 | 1.7%
O=c1c(-c2ccccc2)cocc1-c1ccccc1 | -2.0 | 4.6%
CCN(CC)C(=O)C1=C(C)N(Cc2ccc(F)cc2)C(=O)C(CC(=O)NCCCN(C)C)C1 (centres undefined) | 0.9 | -6.2%
O=C(CC1C[C@H](C(=O)N2CCCCC2)[C@@]2(CCc3ccccc3)c3[nH]c4ccccc4c3CCN2C1=O)NCCc1ccccn1 (some centres undefined) | 7.3 | -1.7%
CN(C(=O)COc1ccccc1C(=O)NCc1ccccc1)C1CCS(=O)(=O)C1 (centres undefined) | -2.5 | 10.3%
CCC(=O)N1CCc2cc(Br)c(S(=O)(=O)CCC(=O)NCCOC)cc21 | -1.3 | 1.4%
COc1ccc([C@H]2C[C@H](n3cc(-c4ccc(F)cc4)nn3)[C@@H](O)CN2Cc2cccs2)cc1 | -1.9 | 0.4%
COc1cc(OC)c(OC)cc1CNC(=O)c1cccc(S(=O)(=O)N2CCc3ccccc3C2)c1 | -31.4 | -14.2%
COc1ccc(C(C#N)CC(=O)c2ccc(OCc3ccccc3)c(OC)c2)cc1OC (centres undefined) | -0.5 | -23.2%

Record cards (already shown). Order of values: AF4-AF9 inh	Vif TR-FRET
`O=C(CC1C[C@H](C(=O)N2CCCCC2)[C@@]2(CCc3ccccc3)c3[nH]c4ccccc4c3CCN2C1=O)NCCc1ccccn1` (some centres undefined) is listed with 7.3	-1.7%
`Cc1ccc([C@H]2C[C@H](O)[C@@H](n3cc(-c4ccc(F)cc4)nn3)CN2C(=O)C2CCCCC2)cc1` is listed with -0.5	0.5%
`N#Cc1nccc2ccc(OCc3ccc(Br)cc3)cc12` is listed with -2.2	-4.8%
`COc1cc(NCCCn2cnc(C(=O)Nc3ccc(C)c(C)c3)n2)cc(OC)c1OC` is listed with 5.9	-1.6%
`CCC(=O)N1CCc2cc(Br)c(S(=O)(=O)CCC(=O)NCCOC)cc21` is listed with -1.3	1.4%

Continuation:
Compound | AF4-AF9 inh | Vif TR-FRET
NS(=O)(=O)c1ccc(CCNC(=O)CSc2nc3c(sc(=S)n3-c3ccccc3)c(=O)[nH]2)cc1 | -1.9 | 2.1%
O=C(CCCC(=O)NN=Cc1ccccc1Cl)NN=Cc1ccccc1Cl | 5.5 | -2.8%
Cc1nc(N)sc1-c1ccccc1 | 1.8 | 8.3%
CC[C@@]1(C(=O)OC)N[C@H](CN(C)S(=O)(=O)c2ccc(OC(F)(F)F)cc2)[C@@H]2C(=O)N(C)C(=O)[C@@H]21 | 2.2 | 1.5%
C[C@@H]1CN([C@H](C)CO)C(=O)CCCn2cc(nn2)CO[C@H]1CN(C)C(=O)Nc1ccc(-c2cccs2)cc1 | -0.7&-1.6 | -3.6%
CC1=C(SCc2ccccc2)C(=O)c2ccccc2C1=O | 13.6 | 58.1µM*
COc1cc2cc(C)c(Br)c(OC)c2cc1OC | -1.9 | -1.7%
Cc1cc(NC(=O)c2cc3cc([N+](=O)[O-])ccc3s2)no1 | -0.6 | 2.0%
COc1ccc(OC)c(N(CCN2C(=O)c3ccccc3C2=O)C(=O)C2CCC(=O)C2C)c1 (centres undefined) | -1.2 | -1.3%
COc1cccc(CN(C)S(=O)(=O)c2ccc3c(c2)OCCO3)c1 | -0.7 | -6.1%
COc1cc2c(c(OC)c1OC)-c1ccc(OC)c(=O)cc1C(NC(=O)c1ccccc1)CC2 (centres undefined) | 0.1 | -10.5%
O=C(NCc1ccccc1C(F)(F)F)c1cccc2c1C(=O)c1ccc(N3CCC(N4CCCCC4)CC3)cc1S2(=O)=O | 6.2 | 4.9%
CCc1ccc(C(C#N)=CC=Cc2ccccc2)cc1 | 10.0 | 6.8%
Nc1ccc(OCc2ccccc2)cc1[N+](=O)[O-] | 3.5 | -6.2%
COc1cccc(C(=O)NC2CC3CCCC(C2)N3Cc2ccc(F)cc2)c1 (centres undefined) | -6.7 | -1.2%
CCCCCCCCSC1=CC(=O)C(OC)=C(OC)C1=O | 13.0 | 31.4%
O=C(N/N=C/c1ccc(F)cc1)c1cc(-c2ccccn2)nc2ccccc12 | -1.5 | -3.6%
O=C(NCc1ccccc1)c1cccc(NC(=O)c2ccccc2)c1 | -1.4 | 9.0%
Cc1cccc(-n2ncc3c2CCCC3NC(=O)c2ccncc2)c1C (centres undefined) | -3.5 | 11.1%
CN(C)CCC(C(=O)c1ccccc1)c1cccnc1 (centres undefined) | 0.9 | -7.1%
O=C(COC(=O)c1nc(Cl)ccc1Cl)Nc1ccc(Cl)cc1 | -1.4 | -9.0%
Nc1ccc(S(=O)(=O)NN=Cc2ccccc2[N+](=O)[O-])cc1 | -2.5 | -9.8%
O=C(OCc1ccccc1F)c1cc(S(=O)(=O)N2CCCCC2)ccc1N1CCOCC1 | -3.9 | 3.1%
CC(C)COC(=O)N(C)C[C@H]1OCc2cnnn2CCCC(=O)N([C@@H](C)CO)C[C@H]1C | 0.0&1.4 | 1.2%
Cn1c(=O)c2c(ncn2CC(=O)OCC(=O)Nc2ccc(F)cc2F)n(C)c1=O | -5.4 | -9.3%

(further entries)
Values run as follows: AF4-AF9 inh | Vif TR-FRET
- CCOC(=O)C(=COC(=O)c1ccccc1)NC(=O)Cc1ccccc1
  1.4 | -9.6%
- CC(C)N(Cc1ccccc1)C(=O)COC(=O)C1CCN(c2ccc(C(F)(F)F)cn2)CC1
  -1.2 | -3.1%
- CCSC1C(=O)N(C)C(SCC)C(=O)N1C (centres undefined)
  -3.3 | 5.1%
- O=C(Cc1csc(-c2cccc(F)c2)n1)Nc1cccc(S(=O)(=O)NC2=NCCC2)c1
  -5.6 | -9.1%
- O=C(CCS(=O)(=O)c1ccc(F)cc1)Nc1nccs1
  -0.2 | -3.0%
- O=C(C(=O)c1ccc(O)c(O)c1)c1ccc(O)c(O)c1
  0.0 | 4.3%
- O=C(Nc1ccc(-c2ccco2)cc1)C1CCCN(Cc2ccco2)C1 (centres undefined)
  10.5 | 7.9%
- COc1ccccc1NC(=O)C(CC(=O)O)Cc1cc(C)cc(C)c1 (centres undefined)
  -5.0 | -10.6%
- COc1cc(NC(=NS(=O)(=O)c2ccccc2)c2ccccc2)ncn1
  -5.0 | -3.0%
- Cc1ccc(Cc2c(-c3ccc(C)cc3)nc3cc(C)ccn23)cc1
  -1.5 | 0.3%
- Cc1c(N2CCCCC2)[nH]c2ccccc12
  -3.9 | -6.7%
- Oc1ccc(Cl)c2cccnc12
  4.1 | 2.6%
- Cc1nc(SCC(=O)NC2(C#N)CCCC2)n(CC(C)C)c1C
  -20.3 | -9.9%
- O=C1NC(=S)S/C1=C\c1cc(Cl)ccc1Cl
  -2.4 | 1.5%
- COc1ccc(-c2cc3nc(C)cc(N4CCN(C(=O)c5ccoc5)CC4)n3n2)cc1
  0.6 | -3.2%
- C[C@H](CO)N1C[C@H](C)[C@@H](CN(C)Cc2ccccc2)OCc2cnnn2CCCC1=O
  -9.3&1.4 | 0.0%
- CN1CCN(S(=O)(=O)c2ccc(C(=O)NC3CCCCC3)cc2)CC1
  1.4 | -3.9%
- Cc1ncc(C(O)c2ccc(N(C)C)cc2)n1Cc1ccccc1 (centres undefined)
  9.4 | -0.2%
- Cc1ccc(Cl)c(OCCCCN2CCC(C)CC2)c1
  -6.5 | -2.2%
- CCCn1nc(C(=O)Nc2cccc(S(=O)(=O)N3CCOCC3)c2)c2ccccc2c1=O
  1.8 | -4.3%
- CCN(C[C@H]1N[C@@](Cc2ccccc2)(C(=O)OC)[C@H]2C(=O)N(C)C(=O)[C@@H]12)S(=O)(=O)c1ccc(C(C)(C)C)cc1
  1.8 | 5.8%
- Cc1cc(-n2c(C)cc(C(=O)COc3cccnc3[N+](=O)[O-])c2C)no1
  3.8 | 8.0%
- CC(=O)C1C(C)CC2C3CCC4CC(=O)CCC4(C)C3CCC21C (centres undefined)
  0.5 | -0.5%
- CN(O)C(=S)c1ccccc1
  -2.3 | -7.6%
- CC(=CC(=O)c1ccccc1)c1ccccc1
  3.3 | -4.5%
- CC1CCCCC12NC(=O)N(CC(=O)N1CCc3ccccc3C1)C2=O (centres undefined)
  -6.6 | -0.6%
- Cc1cc(C)n2nc(C(=O)OCC(=O)Nc3ccc(Cl)cc3)nc2n1
  -1.8 | -1.1%
- COc1ccc(CC(Cc2ccc(OC)c(OC)c2)NC=O)cc1OC
  -3.0 | -6.7%
- CC[C@]12c3[nH]c4cc(-c5ccco5)ccc4c3CCN1C(=O)[C@@H](CC(=O)NCCCN(C)C)C[C@@H]2C(=O)N1CCN(C(=O)c2ccco2)CC1
  9.8 | -2.6%
- CCCCCCCCOC(=O)c1cc([N+](=O)[O-])c(Sc2ncnc3nc[nH]c23)c([N+](=O)[O-])c1
  9.0 | 29.5%
- O=C(COC(=O)/C=C/c1ccccc1)NCc1ccco1
  2.1 | 5.7%
- Cc1cc(C)c(NS(=O)(=O)c2ccc3c(c2)oc(=O)n3C)c(C)c1
  0.4 | 0.4%
- O=C1N[C@H]2CC=C[C@H]2N(Cc2cccs2)c2ccccc21
  -3.5 | -5.1%
- CCOC(=O)C1=CN(CC)S(=O)(=O)NC1CCc1ccccc1 (centres undefined)
  -9.1 | 0.9%
- CCN(c1ccccc1)S(=O)(=O)c1ccc(OCC(=O)N2CCCC2)cc1
  -6.3 | -7.0%
- CCOC(=O)c1c(C)[nH]c(C(=O)OCC(O)=C(C#N)c2nc3ccccc3[nH]2)c1C
  -0.3 | 6.8%
- COc1cccc(NC(=O)CN(C)C(=O)/C=C/c2cn(-c3ccccc3)nc2-c2cccs2)c1
  1.3 | -1.9%
- CC(=NNC(=S)Nc1cccc(Cl)c1)c1ccccn1
  6.4 | -3.8%
- Cc1ccc(OCC(=O)Nc2ccc3c(c2)nc(CCN2CCCC2)n3C)cc1
  -0.2 | -8.9%
- CCOc1ccc(CCN2C(=S)N([C@@H](CC(C)C)CN3CCCC3CN3C(=S)NC[C@@H]3Cc3ccc(O)cc3)C[C@@H]2Cc2ccc(O)cc2)cc1 (some centres undefined)
  3.7 | 1.5%
- CCN(c1ccccc1)S(=O)(=O)c1ccc(OC)c(NC(=O)c2ccccc2OC)c1
  -4.9 | 3.8%
- CCOC=C1SC(=S)N(c2ccccc2OC)C1=O
  1.9 | -1.5%
- CCc1ccc(OCC(=O)NNCC(=O)Nc2ccc(OC)cc2)cc1
  -6.9 | -0.1%
- Cc1ccc(SCc2c(C(=O)N/N=C/c3ccco3)nnn2-c2nonc2N)cc1
  -0.9 | -2.6%
- Cc1ccc(S(=O)(=O)Nc2cc(=O)[nH]c(SCC(=O)Nc3ccccc3Cl)n2)cc1
  1.0 | ?
- C#CCN(C[C@H]1[C@H](OC(=O)NC2CC2)[C@H](OC(=O)NC2CC2)C[C@@H](C(=O)OC)[C@H]1C(=O)OC)S(=O)(=O)c1ccc(C)cc1
  0.9 | 5.0%
- Cc1c(NS(=O)(=O)c2cccc(C(=O)NCc3ccccc3Cl)c2)c(=O)n(-c2ccccc2)n1C
  7.6 | 1.6%
- COc1ccc(NC(=O)N(C)C[C@@H]2OCc3ccccc3-c3c(n(C)c4ccccc34)C(=O)N([C@H](C)CO)C[C@H]2C)c(OC)c1
  13.2 | -1.6%
- O=C(CCC(=O)N1CCN(S(=O)(=O)c2ccccc2Cl)CC1)c1ccccc1
  2.9 | 0.6%
